High-throughput results (PubChem BioAssay)
PINK1 expr mod: A Quantitative High throughput Screen to Identify Chemical Modulators of PINK1 Expression | PINK1 immunofluorescence, high-content cytometry, 24 h | Potency, µM (doses to about 76.6 µM), for the others: at the top dose activation (PINK1 increase), actives largely listed as activators | 0.2% of 410,000 active; active = well fitted activation curve with a large enough effect; inconclusive = small, poorly fitted or top-dose-only effect; inactive = flat fitted curve, though single readings scatter; cell line not stated here;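 note: potency is the fitted concentration of half-maximal effect; % of control where 0% means no effect; nearly all actives have a fitted effect of over 65% in size; a mitochondrial uncoupler was the plate control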
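PINK1 protein level read as immunofluorescence by microplate cytometer in a fixed, stained stable cell line after 24 h exposure to five compound concentrations, with CCCP as control.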
Sfp inh: qHTS Assay for Inhibitors of Bacillus subtilis Sfp phosphopantetheinyl transferase (PPTase); AID 1490, 2009; Potency, µM, inactives show max response, negative = inhibition, hits mostly inhibitors; Biochemical Sfp PPTase activity, qHTS; 4'-phosphopantetheinyl transferase ffp (Bacillus subtilis), Q9F4F7; 3.5% of 310,000 active; active = well fitted inhibition curve with a large enough effect; inconclusive = small, poorly fitted or top-dose-only effect, or another doubt; inactive = no such curve, though single readings can be large or run the other way;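 note: the enzyme is Sfp with the accession as filed and its product quenches rhodamine fluorescence; potency is the fitted concentration of half-maximal effect; 0% = enzyme reaction without inhibitor and -100% = no enzyme wells; top concentration of the series not given in the record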
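Compounds were incubated with enzyme (final 15 nM) for 15 min at room temperature before substrate addition started the reaction. Fluorescence at 525 nm excitation, 598 nm emission was recorded immediately and after 30 minutes.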
TRPML1 agonist: qHTS for Agonists of the Human Mucolipin Transient Receptor Potential 1 (TRPML1); AID 624414, 2012; Mucolipin-1 (Homo sapiens), Q9GZU1; TRPML1-expressing cells, Ca2+ dye fluorescence, FDSS; host cell line not named in the record; reference of the full effect not given here; activation, % (concentration not given with the values); 0.12% of 410,000 active; in the data active = activation above about 50%; inconclusive = about 30% to 50%; inactive = below about 30%; note: 0% is about no effect; the text of the record puts the active cut at 80%
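Cells: TRPML1-DL, 1X Tet inducer, ~16 h at 37 degrees C/5% CO2. Dye: ABD Ca8 no-wash + quencher, 45-90 min RT. Read: 10 s baseline, compound add, 110 s agonist phase; 54-4 EC80 (4uM final), 110 s antagonist phase.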
TRPV1 PAM: HTS Assay for Compounds that Act as Potentiators of the Vanilloid Receptor 1 | Transient receptor potential cation channel subfamily V member 1 (Homo sapiens), Q8NER1 | TRPV1-expressing cells, Fluo-8 calcium influx, capsaicin EC20 potentiation; host cell line not named in the record; control for the full effect not named in the record | potentiation, % at 8.33 µM | 0.02% of 320,000 active; active means potentiation above 80%; inconclusive means 30% to 80%; inactive means below 30%; note: 0% is about no effect
Target sequence (Q8NER1 whole entry, looked up): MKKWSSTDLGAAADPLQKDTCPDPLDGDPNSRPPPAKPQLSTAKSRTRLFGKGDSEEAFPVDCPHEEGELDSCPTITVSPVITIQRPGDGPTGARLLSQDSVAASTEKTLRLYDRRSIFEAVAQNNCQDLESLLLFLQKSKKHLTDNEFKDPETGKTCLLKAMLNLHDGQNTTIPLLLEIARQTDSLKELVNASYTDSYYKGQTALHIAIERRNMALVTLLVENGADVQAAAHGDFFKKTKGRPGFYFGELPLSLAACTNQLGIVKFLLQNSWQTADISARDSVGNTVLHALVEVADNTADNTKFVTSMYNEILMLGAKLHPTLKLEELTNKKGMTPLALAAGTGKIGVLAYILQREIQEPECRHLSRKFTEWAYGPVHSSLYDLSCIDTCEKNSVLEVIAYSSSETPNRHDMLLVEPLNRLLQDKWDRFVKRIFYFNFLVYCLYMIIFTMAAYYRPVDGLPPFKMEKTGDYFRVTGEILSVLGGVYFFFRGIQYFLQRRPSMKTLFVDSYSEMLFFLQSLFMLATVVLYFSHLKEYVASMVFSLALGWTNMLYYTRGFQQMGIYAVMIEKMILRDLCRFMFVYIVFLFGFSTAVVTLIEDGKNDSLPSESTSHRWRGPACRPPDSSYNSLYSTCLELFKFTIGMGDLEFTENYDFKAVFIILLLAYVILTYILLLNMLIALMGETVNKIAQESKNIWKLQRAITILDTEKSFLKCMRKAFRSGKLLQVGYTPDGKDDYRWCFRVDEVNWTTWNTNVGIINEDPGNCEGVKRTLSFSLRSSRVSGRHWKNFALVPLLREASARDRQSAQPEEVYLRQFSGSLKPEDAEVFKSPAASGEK
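Cells expressing TRPV1 were dye-loaded with Fluo-8 and read kinetically: 10 s baseline, 3 min after compound (agonist portion), then 2 min after EC20 capsaicin (allosteric enhancer portion). Calcium-bound dye fluorescence at 480/520 nm.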
ClpP mod: qHTS Assay for Activators of ClpP. purified B. subtilis ClpP, FRET peptide cleavage, 20 min. Potency, µM (top dose mostly 57.5 µM), for inactives: at the highest dose activity change, negative = active. 1.9% of 340,000 active. AID 651965, 2013; active = well fitted falling curve with a large enough effect; inconclusive = small, poorly fitted or top-dose-only effect; inactive = no such curve, though single readings can be large or run the other way; note: potency is the fitted concentration of half-maximal effect; the source files actives as falling curves though it sought activators and does not explain the sign; nearly all actives have a fitted effect of over 65% in size; many hits overshoot -100%
Target sequence (P80244 whole entry, looked up): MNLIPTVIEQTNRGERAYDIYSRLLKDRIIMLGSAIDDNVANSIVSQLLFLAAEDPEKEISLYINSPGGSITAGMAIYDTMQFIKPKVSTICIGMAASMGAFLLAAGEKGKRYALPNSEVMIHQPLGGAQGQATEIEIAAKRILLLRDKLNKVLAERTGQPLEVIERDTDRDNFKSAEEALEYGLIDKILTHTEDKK
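Buffer: 100 mM Tris/HCl pH8, 100 mM KCl, 0.05% low protease BSA, 2.5% glycerol, 0.01% Tween-20. ClpP 10 microg/mL final; 20 min RT; delta FRET normalized to ADEP and DMSO controls.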
Menin-MLL FL inh: qHTS Assay for Inhibitors Targeting the Menin-MLL Interaction in MLL Related Leukemias: Competition With Fluorescein Labeled MLL-derived Peptide; Fluorescence polarization, fluorescein-MLL peptide displacement from menin; FP activity change, % at 61.4 µM; 290,000 tested, under 10 active; AID 1766, 2009; inconclusive = falling polarisation curve, or a change in total fluorescence; inactive = total fluorescence flat and polarisation flat or rising; no compound was filed as active; the % refers to the polarisation; negative = inhibition;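 note: % of control where 0% means no effect; inhibitors lower the polarisation; unlabelled MLL peptide was the positive control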
TRPML1 inh: qHTS for Inhibitors of the Human Mucolipin Transient Receptor Potential 1 (TRPML1); activity change, negative = inhibition, % (no concentration beside the values); TRPML1-inducible cells, Ca2+ dye fluorescence, FDSS; active compounds read low; inhibition of EC80 agonist-evoked calcium signal; 0.02% of 390,000 active; in the data active means activity change below about -50%; inconclusive means about -30% to -50%; inactive means above about -30%;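 note: stimulus is agonist 54-4 at its EC80 concentration; % is set by controls: 0 for no effect and ±100 for the full control effect; compound concentration not given in the record; the text of the record puts the active cut at -80%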
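Calcium fluorescence in TRPML1-DL cells induced overnight with Tet: a 110 s read after compound pin addition, then a 110 s antagonist read after challenge with 54-4 at 4 uM final (EC80).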
The depositor's hits bear a star; ? = inconclusive; nt = no result given; [ ] = another dose, or the depositor's remark.

SMILES | PINK1 expr mod | Sfp inh | TRPML1 agonist | TRPV1 PAM | ClpP mod | Menin-MLL FL inh | TRPML1 inh
Cc1ccc2oc(=O)c3cnn(CC(=O)N(Cc4ccco4)C4CCCCC4)c3c2c1 | 4.9% | ? | 1.6 | 8 | 2.0% | 1.7 | 25
O=C(c1ccccc1F)N1CCN(CC2CC3C=CC2C3)CC1 (configuration not stated) | -0.3% | -15% | 0.2 | -8 | -1.2% | -0.9 | 10
CCOC(=O)Cc1csc(SCC(=O)Nc2ccc(C)cc2F)n1 | 7.1% | nt | -0.6 | -16 | -1.5% | nt | -4
Cc1ccc(C)c(N(C(=O)Cn2nnc3ccccc32)C(C(=O)NCc2ccco2)c2ccncc2)c1 (configuration not stated) | -1.0% | 2% | -0.5 | 4 | -1.3% | -3.2 | -11
S=c1[nH]c2cc(Cl)c3cccnc3c2o1 | -1.7% | -15% | -0.3 | 9 | nt | -15 | 2
CN(C)c1cc2c(cc1NC(=O)c1ccc(F)cc1)n(C)c(=O)n2C | 0.4% | nt | 1.8 | nt | 4.5% | nt | -14
CCc1ccc([C@H]2[C@@H]3C(=O)C[C@@H]4C(=O)N(C5CCCCC5)C(=O)[C@@H]4[C@@H]3CN2S(=O)(=O)c2ccc(C)cc2)cc1 | 4.3% | nt | 28 | nt | 0.0% | nt | -9
OCOCCCn1c(C2CCCN2c2nc(-c3ccc(F)cc3)cs2)nc2cc(Cl)c(N3CCCCC3)cc21 (configuration not stated) | 0.3% | nt | -0.2 | nt | -2.7% | nt | 22
CC(=O)Nc1ccc(S(=O)(=O)NNC(=O)c2ccc(S(=O)(=O)N3CCCCC3)cc2)cc1 | 0.1% | 7% | -0.3 | -3 | 0.7% | 2.3 | 4
CCOc1ccc(NC(=S)N2CCN(S(=O)(=O)c3ccccc3)CC2)cc1 | -1.0% | 9% | 0.3 | -6 | -2.1% | nt | -5
O=S1(=O)CC(N2CCCC2)CN1C1CCCC1 (configuration not stated) | 2.4% | nt | 0.8 | nt | -2.5% | nt | 31
O=C(c1cccc(S(=O)(=O)N2CCCCC2)c1)N1CCN(S(=O)(=O)c2ccc(F)cc2)CC1 | -2.6% | -13% | 0.5 | -1 | 1.6% | -0.5 | -1
Cc1nnc(-c2ccc(Cl)cc2)nc1NCCN(C)C | -2.3% | 15% | 1.4 | 4 | nt | -3.9 | -25
CCCC(=O)N1CCOCC1c1cc(C(=O)Nc2ccccc2)no1 (configuration not stated) | 4.0% | nt | -0.6 | nt | -1.4% | nt | nt
CCCNC(=O)CCc1c(C)nc2nc(C)nn2c1C | 0.9% | 11% | 1.5 | 3 | nt | -8.6 | 18
COc1ccc(CCNC(=O)c2ccc(=O)[nH]c2)cc1OC | 3.1% | 11% | -0.6 | -3 | -0.8% | 1.9 | 4
COc1ccc(NC(=O)C(=O)N/N=C(\C)CC(=O)Nc2ccccn2)c(OC)c1 | -0.9% | 23% | 2.6 | 6 | nt | 4.1 | -5
Cc1cc(NC(=O)c2ccc(COc3ccc(Cl)c(C)c3)o2)no1 | -6.0%[38.3 µM] | 12% | 0.8 | -16 | -1.2% | 0.4 | -1
O=C(CCCCCN1C(=O)c2cccc3cccc(c23)C1=O)NCc1cccnc1 | 3.8% | 12% | -0.2 | 3 | nt | -2.2 | -18
Cc1ccccc1-c1n[nH]c(=S)n1/N=C/C=C/c1ccco1 | 0.4% | -21% | 5.2 | -1 | -0.5% | 23 | 9

Profiles, quoted from the list. Order of screens: PINK1 expr mod	Sfp inh	TRPML1 agonist	TRPV1 PAM	ClpP mod	Menin-MLL FL inh	TRPML1 inh
COc1ccc(CCNC(=O)c2ccc(=O)[nH]c2)cc1OC is listed as 3.1%	11%	-0.6	-3	-0.8%	1.9	4
O=S1(=O)CC(N2CCCC2)CN1C1CCCC1 (configuration not stated) is listed as 2.4%	nt	0.8	nt	-2.5%	nt	31
O=C(c1cccc(S(=O)(=O)N2CCCCC2)c1)N1CCN(S(=O)(=O)c2ccc(F)cc2)CC1 is listed as -2.6%	-13%	0.5	-1	1.6%	-0.5	-1
Cc1ccc2oc(=O)c3cnn(CC(=O)N(Cc4ccco4)C4CCCCC4)c3c2c1 is listed as 4.9%	?	1.6	8	2.0%	1.7	25
Cc1ccccc1-c1n[nH]c(=S)n1/N=C/C=C/c1ccco1 is listed as 0.4%	-21%	5.2	-1	-0.5%	23	9

More compounds.
SMILES | PINK1 expr mod | Sfp inh | TRPML1 agonist | TRPV1 PAM | ClpP mod | Menin-MLL FL inh | TRPML1 inh
COc1cc2nc(Cl)nc(N3CCOCC3)c2cc1OC | 1.4% | 11% | 0.1 | 3 | nt | -1.2 | 38
CCN(CC)S(=O)(=O)c1cc(NC(=O)CCCOc2ccc(C(C)=O)cc2)ccc1C | -2.9% | 8% | 3.0 | -17 | -14% | 7.4 | 8
CC1(C)CC(N(Cc2cccs2)C(=O)c2ccco2)CCO1 (configuration not stated) | 0.4% | -11% | -0.3 | -12 | -0.5% | 7.3 | 3
O=C(COC(=O)C1=Cc2ccccc2OC1)NCc1ccc(F)cc1 | 1.3% | nt | 9.6 | nt | nt | nt | -8
Cn1cc(Br)c(NS(=O)(=O)c2ccc(Cl)s2)n1 | 0.9% | 25% | -0.3 | -10 | 0.8% | -1.8 | -1
COC(=O)c1scc(C)c1N/N=C(\C)c1ccc(F)cc1F | 0.8% | -5% | -0.6 | 15 | ? | 0.1 | -8
CCCCS(=O)CC(COCc1ccccc1)OC(=O)CSc1nc(C)cc(C)n1 (configuration not stated) | 0.1% | 16% | 0.1 | 0 | 0.7% | 0.2 | -2
CC(=O)CSc1ncnc2nc[nH]c12 | -2.0% | 0% | -0.7 | 6 | 5.1% | 5.0 | -8
CC(OC(=O)/C=C/c1cccs1)C(=O)Nc1ccc(C(N)=O)cc1 (configuration not stated) | 6.7% | nt | 0.2 | -19 | 1.0% | nt | -2
O=C(CNc1ccccc1F)Nc1cccc(S(=O)(=O)N2CCCCC2)c1 | -1.2% | nt | 2.8 | -12 | nt | nt | 39
CCN(CC)C(=O)C1CCCN(Cc2ccc(OC)c(C)c2)C1 (configuration not stated) | -0.6% | -9% | -0.7 | 1 | -0.1% | -0.9 | -8
O=C1COc2ccc(-c3cc(-c4ccc(F)cc4)c4c(n3)-c3cc(Cl)ccc3OC4)cc2N1 | 1.4% | nt | -0.2 | nt | -11% | nt | -7
CCC1CCCCN1CCCNC(=O)C1CCC(=O)N1Cc1ccc(C)cc1 (configuration not stated) | 0.1% | 12% | -0.1 | -3 | -0.6% | -0.8 | -6
O=C1Nc2cnc(Cl)nc2Nc2ccccc21 | 0.3% | nt | -0.7 | nt | 0.5% | nt | nt
COc1cc2c(cc1OC)C(c1ccc([N+](=O)[O-])cc1)N(C(C)=O)CC2 (configuration not stated) | 3.0% | -3% | -0.2 | -9 | nt | 3.2 | 1
O=C(NCc1ccco1)c1c(Cl)cccc1Cl | 0.3% | nt | -0.2 | nt | -2.1% | nt | -9
COCCCNc1nc2c(c(=O)[nH]c(=O)n2C)n1CC(O)COc1ccccc1C (configuration not stated) | 1.2% | 14% | -0.7 | -9 | -1.8% | -0.8 | 18
CCn1nnc(NC(=O)c2ccco2)n1 | -0.4% | 16% | -0.2 | 11 | nt | 6.2 | 12
CCn1ccnc1CN(C)C(=O)C1CCC(=O)N(Cc2cccc(C(F)(F)F)c2)C1 (configuration not stated) | -1.4% | 8% | 0.2 | -2 | -2.0% | nt | 13
Cc1cc([N+](=O)[O-])nn1CC(=O)Nc1nc2ccccc2s1 | 0.6% | 16% | 0.2 | -7 | -1.8% | -1.9 | 20
Cc1ccc(OCC(=O)Nc2ccc3nc(SCC(N)=O)sc3c2)cc1 | 2.5% | nt | -0.5 | nt | 0.4% | nt | 7
COC(=O)c1ccc(Oc2cc(C)nc(-n3nc(C)cc3C)n2)cc1 | 14%[38.3 µM] | 16% | -0.7 | nt | -1.9% | 1.8 | 5
CCNc1nc(C#N)nc(N2CCOCC2)n1 | 1.1% | nt | -0.7 | nt | -2.8% | nt | nt
O=S(=O)(c1ccc2ccccc2c1)n1cccn1 | 0.5% | -2% | -0.6 | 0 | 0.2% | nt | -14
Cc1ccc(C)c(C(O)c2ncc(-c3cccc4ccccc34)[nH]2)c1 (configuration not stated) | 1.4% | nt | -1.0 | nt | 4.9% | nt | nt
O=[N+]([O-])c1cccc(S(=O)(=O)N2CCC(c3nc(-c4ccncc4)no3)CC2)c1 | 3.3%[38.3 µM] | -1% | -0.7 | 0 | 0.0% | 2.1 | 15
CC1CCCCN1c1c(S(=O)(=O)c2ccc(Cl)cc2)cnc2ccccc12 (configuration not stated) | 2.5% | nt | 1.3 | nt | 0.0% | nt | 16
O=C(O)/C=C/C(=O)Nc1ccc(-n2nccc2C(F)(F)F)cc1 | -1.3% | 1% | 0.5 | 3 | nt | 6.0 | 0
Cc1noc(C)c1NC(=O)N(C)C[C@@H]1OCc2cnnn2CCCC(=O)N([C@@H](C)CO)C[C@@H]1C | -0.6% | nt | -0.2 | nt | 1.8% | nt | 14
O=C(NCc1cccnc1)C1CCN(S(=O)(=O)c2cc(Cl)ccc2Cl)CC1 | -0.4% | 7% | 0.2 | -15 | nt | -0.4 | -9
CN(c1cccc(NC(=O)CN(c2ccc(C34CC5CC(CC(C5)C3)C4)cc2)S(C)(=O)=O)c1)S(C)(=O)=O | -1.6%[38.3 µM] | 15% | 0.6 | 3 | -2.1% | -2.9 | 9
COc1ccc(C2CC(c3ccccc3)=NN2C(=O)COC(=O)/C=C/c2ccc(O)c(OC)c2)cc1 (configuration not stated) | -0.5% | 3% | 0.3 | ? | -29% | 5.0 | 19
COc1ccc(S(=O)(=O)N2CCOC23CCN(S(C)(=O)=O)CC3)cc1 | -0.1% | nt | -0.5 | 18 | nt | nt | 6
COc1cccc(C(=O)NC(Cc2ccccc2)c2ccc3c(c2)OCCCO3)c1 (configuration not stated) | ? | -1% | 0.8 | 2 | -4.7% | 4.9 | 4
O=C(COC(=O)C1CC(O)CN1C(=O)Oc1ccccc1)c1ccc(Br)cc1 (configuration not stated) | 2.8% | 9% | -0.6 | -10 | -2.0% | 2.3 | -15
